# Bioassay records from PubChem BioAssay.
# Env fusion inh = blocks HIV Env-driven cell-cell fusion. 360,000 compounds, 1.1% hits. HeLa-JRFL Env/CEM21 cell fusion, luciferase. inhibition, % at 12.3 µM;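 active means mean replicate inhibition score of at least 50 and every replicate individually at or above 50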;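 further: 0% = plate neutral controls and 100% = maraviroc near 300 nM; one replicate is shown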
# Yeast UUG start = modulators of start codon recognition fidelity in yeast; S. cerevisiae UUG-firefly luciferase reporter, luminescence/redox ratio; activity score, % at 18.7 µM; 350,000 compounds, 0.13% hits; AID 602363;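 active means replicate mean at a twofold rise or more, about +100% in these data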;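 further: firefly luciferase made from a UUG start codon reports start codon fidelity; reporter light over untreated wells divided by growth signal over untreated wells; some hits fall short of that in this replicate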
# * hit, by the source's call; [ ] = remark or other dose. An excerpt. The share of hits here may be higher or lower than overall.
# A first look, six compounds:
SMILES | Env fusion inh | Yeast UUG start
C[C@@H]1CN([C@H](C)CO)S(=O)(=O)c2ccc(-c3ccc(C#N)cc3)cc2O[C@@H]1CN(C)CC1CC1 | -2[16.7 µM] | 1
CN(C)CCCNC(=O)C[C@@H]1C=C[C@@H](NC(=O)c2ccccc2F)[C@@H](CO)O1 | 7[16.7 µM] | -1
C[C@H](CO)N1C[C@H](C)[C@H](CN(C)C(=O)NC2CCCCC2)Oc2ccc(NC(=O)Cn3cnnn3)cc2CC1=O | 10[16.7 µM] | 0
CC(C)NC(=O)N(C)C[C@@H]1Oc2ccc(NC(=O)Nc3ccc4c(c3)OCO4)cc2CC(=O)N([C@@H](C)CO)C[C@H]1C | -20[16.7 µM] | -3
C[C@@H]1CN([C@@H](C)CO)C(=O)c2cc(-c3ccncc3)cnc2O[C@@H]1CN(C)C(=O)C1CCCCC1 | -11[16.7 µM] | -8
C[C@H]1CN([C@@H](C)CO)C(=O)c2cc(C#CC3(O)CCCC3)cnc2O[C@@H]1CN(C)S(=O)(=O)c1ccc(F)cc1 | -13[16.7 µM] | 16

# Main list (from the top)
SMILES | Env fusion inh | Yeast UUG start
C[C@@H]1CN([C@H](C)CO)S(=O)(=O)c2ccc(-c3ccc(C#N)cc3)cc2O[C@@H]1CN(C)CC1CC1 | -2[16.7 µM] | 1
CN(C)CCCNC(=O)C[C@@H]1C=C[C@@H](NC(=O)c2ccccc2F)[C@@H](CO)O1 | 7[16.7 µM] | -1
C[C@H](CO)N1C[C@H](C)[C@H](CN(C)C(=O)NC2CCCCC2)Oc2ccc(NC(=O)Cn3cnnn3)cc2CC1=O | 10[16.7 µM] | 0
CC(C)NC(=O)N(C)C[C@@H]1Oc2ccc(NC(=O)Nc3ccc4c(c3)OCO4)cc2CC(=O)N([C@@H](C)CO)C[C@H]1C | -20[16.7 µM] | -3
C[C@@H]1CN([C@@H](C)CO)C(=O)c2cc(-c3ccncc3)cnc2O[C@@H]1CN(C)C(=O)C1CCCCC1 | -11[16.7 µM] | -8
C[C@H]1CN([C@@H](C)CO)C(=O)c2cc(C#CC3(O)CCCC3)cnc2O[C@@H]1CN(C)S(=O)(=O)c1ccc(F)cc1 | -13[16.7 µM] | 16
CC(C)C#Cc1ccc2c(c1)O[C@@H](CN(C)Cc1ccncc1)[C@@H](C)CN([C@H](C)CO)S2(=O)=O | -16[16.7 µM] | -3
O=C(C[C@H]1C[C@H]2c3cc(NC(=O)CC4CC4)ccc3O[C@H]2[C@@H](CO)O1)NCc1ccccn1 | 17[16.7 µM] | -18
C[C@@H]1CCCCO[C@@H](CN(C)C(=O)Nc2cccc3ccccc23)[C@H](C)CN([C@H](C)CO)C(=O)c2cc(NC(=O)c3ccncc3)ccc2O1 | 9[16.7 µM] | -8
CC(C)NC(=O)Nc1ccc2c(c1)C(=O)N([C@@H](C)CO)C[C@@H](C)[C@@H](CN(C)S(=O)(=O)c1ccc(F)cc1)OCCCC[C@@H](C)O2 | -19[16.7 µM] | 5
CN1C(=O)c2cc(NC(=O)Nc3ccccc3F)ccc2OC[C@H]2O[C@@H](CC(=O)O)CC[C@H]21 | 8[16.7 µM] | -7
C[C@H]1CN([C@@H](C)CO)S(=O)(=O)c2ccc(/C=C/c3ccccc3)cc2O[C@H]1CN(C)C(=O)Nc1cccc(F)c1 | 10[16.7 µM] | -1
C[C@H]1CN([C@@H](C)CO)S(=O)(=O)c2ccc(-c3ccncc3)cc2O[C@H]1CN(C)C(=O)c1ccc2c(c1)OCO2 | 6[16.7 µM] | -2
C[C@H]1CN([C@@H](C)CO)C(=O)c2cc(Br)cnc2O[C@H]1CN(C)C(=O)C1CCOCC1 | 1[16.7 µM] | -10
N#C[C@H]1[C@@H](c2ccc(C#CCC3CCCC3)cc2)[C@H](CO)N1C(=O)c1ccccn1 | 42[16.7 µM] | 6
COc1ccccc1-c1cn(CC[C@H]2CC[C@@H](NC(=O)c3ccccc3F)[C@@H](CO)O2)nn1 | -5[16.7 µM] | -1
CN1C(=O)c2cc(NC(=O)c3ccc(F)cc3)ccc2OC[C@H]2O[C@H](CC(=O)NC3CCC3)CC[C@@H]21 | -24[16.7 µM] | 1
CC(C)C#Cc1cnc2c(c1)C(=O)N([C@H](C)CO)C[C@H](C)[C@H](CN(C)Cc1ccc3c(c1)OCO3)O2 | -24[16.7 µM] | 4
COc1ccccc1S(=O)(=O)Nc1ccc2c(c1)OC[C@H](C)NC[C@H](C)[C@H](OC)CN(C)C2=O | 0[16.7 µM] | -8
CCCNC(=O)Nc1ccc2c(c1)C(=O)N(C)[C@@H]1CC[C@@H](CC(=O)NC)O[C@@H]1CO2 | -5[16.7 µM] | -11
CNC[C@@H]1Oc2ncc(-c3ccccc3)cc2C(=O)N([C@H](C)CO)C[C@@H]1C | -16[16.7 µM] | 1
CO[C@@H]1CN(C)C(=O)c2cc(NS(=O)(=O)c3ccccc3)ccc2OC[C@H](C)N(C(=O)NC(C)C)C[C@H]1C | 2[16.7 µM] | 26
C[C@H](CO)N1C[C@H](C)[C@@H](CN(C)S(=O)(=O)c2ccc(Cl)cc2)Oc2ccc(NC(=O)CCC(F)(F)F)cc2CC1=O | 10[16.7 µM] | 14
C[C@H]1CN([C@@H](C)CO)C(=O)c2cc(C#CC(C)(C)O)cnc2O[C@H]1CN(C)C(=O)c1ccccc1F | 9[16.7 µM] | 13
COc1ccccc1NC(=O)N(C)C[C@@H]1OCc2cn(nn2)CCCC(=O)N([C@H](C)CO)C[C@@H]1C | 7[16.7 µM] | 9
C[C@H]1CN([C@@H](C)CO)C(=O)c2cccc(NC(=O)c3ccc(-c4nccs4)cc3)c2O[C@H]1CN(C)Cc1ccc(Cl)c(Cl)c1 | -15[16.7 µM] | 3
N#C[C@H]1[C@H](c2ccc(C#Cc3cccc(F)c3)cc2)[C@H](CO)N1C(=O)C1CCCC1 | 43[16.7 µM] | -1
C[C@H]1CN([C@@H](C)CO)C(=O)c2cc(NS(=O)(=O)c3ccc(F)cc3)ccc2O[C@H]1CN(C)Cc1ccc(Cl)c(Cl)c1 | -1[16.7 µM] | -8
C[C@@H]1CCCCO[C@@H](CN(C)Cc2ccc(C(F)(F)F)cc2)[C@H](C)CN([C@@H](C)CO)C(=O)c2cc(NS(=O)(=O)c3cn(C)cn3)ccc2O1 | 3[16.7 µM] | 6
C[C@@H]1CN([C@@H](C)CO)C(=O)Cc2cc(NC(=O)Cc3cn(C)c4ccccc34)ccc2O[C@H]1CN(C)C(=O)Nc1ccc(C(F)(F)F)cc1 | -11[16.7 µM] | 0
C[C@@H]1CN([C@H](C)CO)C(=O)c2cccc(NS(=O)(=O)c3cccs3)c2O[C@@H]1CN(C)S(C)(=O)=O | 10[16.7 µM] | -3
C[C@@H]1CN([C@@H](C)CO)C(=O)c2cc(C#CCC3CCCC3)cnc2O[C@H]1CN(C)C(=O)CC1CC1 | 30[16.7 µM] | -12
CC(C)NC(=O)Nc1ccc2c(c1)C(=O)N([C@@H](C)CO)C[C@H](C)[C@@H](CN(C)C(=O)c1ccccc1)OCCCC[C@@H](C)O2 | 8[16.7 µM] | 5
CCCNC(=O)C[C@@H]1CC[C@@H]2[C@@H](COc3ccc(NC(=O)c4ccccc4)cc3C(=O)N2C)O1 | -16[16.7 µM] | 9
Cc1nc2c(OCc3cccc(Cl)c3)cccn2c1N(C)Cc1cccs1 | 10 | -12
CN1C(=O)c2cc(NC(=O)C3CCOCC3)ccc2OC[C@H]2O[C@H](CC(=O)NC3CCCC3)CC[C@H]21 | -10[16.7 µM] | 1
COc1cccc(S(=O)(=O)N(C)C[C@@H]2Oc3ncc(-c4cccc(C(=O)N(C)C)c4)cc3C(=O)N([C@H](C)CO)C[C@H]2C)c1 | 3[16.7 µM] | -5
COc1ccc(NC(=O)N(C)C[C@H]2OCc3cnnn3CCCC(=O)N([C@@H](C)CO)C[C@@H]2C)c(OC)c1 | -21[16.7 µM] | 10
C[C@@H]1CCCCO[C@H](CN(C)Cc2ccccc2)[C@@H](C)CN([C@@H](C)CO)C(=O)c2cc(NC(=O)Nc3ccc(C(F)(F)F)cc3)ccc2O1 | 88*[16.7 µM] | 8
CCCNC(=O)C[C@H]1CC[C@H]2[C@@H](COc3ccc(NC(=O)CCC)cc3C(=O)N2C)O1 | -39[16.7 µM] | -9
COc1ccccc1NC(=O)N(C)C[C@@H]1Oc2ncc(C#CCN(C)C)cc2C(=O)N([C@H](C)CO)C[C@H]1C | -21[16.7 µM] | 1
COc1ccc(NC(=O)N(C)C[C@H]2Oc3ncc(-c4ccc(C#N)cc4)cc3C(=O)N([C@H](C)CO)C[C@@H]2C)cc1 | -8[16.7 µM] | 10
C[C@@H]1CN([C@@H](C)CO)C(=O)c2cc(N(C)C)ccc2O[C@H]1CN(C)S(=O)(=O)c1ccccc1 | 17[16.7 µM] | 10
Cc1noc(C)c1S(=O)(=O)Nc1ccc2c(c1)CC(=O)N([C@@H](C)CO)C[C@@H](C)[C@H](CN(C)Cc1ccc(C(F)(F)F)cc1)O2 | 38[16.7 µM] | 19
C[C@@H]1CCCCO[C@H](CN(C)Cc2ccc(C(F)(F)F)cc2)[C@@H](C)CN([C@H](C)CO)C(=O)c2cc(NC(=O)CCC(F)(F)F)ccc2O1 | 9[16.7 µM] | -1
Cc1ccc(S(=O)(=O)Nc2ccc3c(c2)C(=O)N([C@@H](C)CO)C[C@@H](C)[C@H](CN(C)C(=O)NC2CCCCC2)OCCCC[C@H](C)O3)cc1 | -308[16.7 µM] | -4
C[C@@H]1CN([C@@H](C)CO)S(=O)(=O)c2ccc(C3=CCCC3)cc2O[C@@H]1CN(C)Cc1cncnc1 | -29[16.7 µM] | -2
CO[C@H]1CN(C)C(=O)c2cc(NS(=O)(=O)c3ccccc3C)ccc2OC[C@@H](C)N(S(C)(=O)=O)C[C@@H]1C | -16[16.7 µM] | -2
O=C(Cc1ccccn1)NCC[C@H]1CC[C@@H](NS(=O)(=O)c2ccc(F)cc2)[C@@H](CO)O1 | 8[16.7 µM] | -3
C/C=C/c1cnc2c(c1)C(=O)N([C@@H](C)CO)C[C@@H](C)[C@@H](CN(C)CC1CCOCC1)O2 | -2[16.7 µM] | 6
CC(C)NC(=O)Nc1ccc2c(c1)C(=O)N([C@@H](C)CO)C[C@@H](C)[C@H](CN(C)Cc1ccc(C(F)(F)F)cc1)OCCCC[C@H](C)O2 | 27[16.7 µM] | 8
C[C@@H]1CN([C@H](C)CO)C(=O)Cc2cc(NC(=O)Nc3ccc(F)cc3)ccc2O[C@@H]1CN(C)C(=O)Nc1ccc(F)cc1 | 4[16.7 µM] | 3
Cc1noc(C)c1NC(=O)N(C)C[C@@H]1Oc2ccc(NS(=O)(=O)c3ccccc3)cc2CC(=O)N([C@H](C)CO)C[C@@H]1C | -3[16.7 µM] | 6
C[C@H](CO)N1C[C@H](C)[C@H](CN(C)C(=O)Nc2cccc3ccccc23)Oc2ccc(NC(=O)Cc3ccccc3)cc2C1=O | -26[16.7 µM] | 10
C[C@H](CO)N1C[C@H](C)[C@H](CN(C)S(=O)(=O)c2cccs2)OCCCC[C@H](C)Oc2ccc(NC(=O)CCCN(C)C)cc2C1=O | 10[16.7 µM] | 23
C[C@@H]1CN([C@H](C)CO)C(=O)c2cc(C#CC3CCCC3)cnc2O[C@@H]1CN(C)C(=O)Nc1ccccc1 | -15[16.7 µM] | 9
COc1cccc(S(=O)(=O)Nc2ccc3c(c2)OC[C@H](C)NC[C@@H](C)[C@H](OC)CN(C)C3=O)c1 | -1[16.7 µM] | 10
C[C@@H]1CCCCO[C@@H](CN(C)C)[C@H](C)CN([C@@H](C)CO)C(=O)c2cc(NC(=O)c3ccccc3)ccc2O1 | 9[16.7 µM] | -8
Cc1ccccc1S(=O)(=O)NCC[C@@H]1CC[C@H](NC(=O)Nc2cccc(Cl)c2)[C@@H](CO)O1 | 9[16.7 µM] | -1
CCC(=O)N(C)C[C@@H]1Oc2cc(-c3ccc(F)cc3)ccc2S(=O)(=O)N([C@H](C)CO)C[C@H]1C | 3[16.7 µM] | 13

# Next section
# Order of values – Env fusion inh, Yeast UUG start
COCCNC(=O)C[C@@H]1C[C@@H]2c3cc(NC(=O)Nc4ccccc4F)ccc3O[C@@H]2[C@@H](CO)O1
    30[16.7 µM], -7
Cc1ccc(S(=O)(=O)N[C@@H]2C=C[C@@H](CC(=O)O)O[C@H]2CO)cc1
    43[16.7 µM], 1
COCC#Cc1cnc2c(c1)C(=O)N([C@H](C)CO)C[C@@H](C)[C@H](CN(C)C(=O)Cc1ccccc1)O2
    0[16.7 µM], -10
C[C@@H]1CN([C@H](C)CO)C(=O)c2cc(NC(=O)Nc3ccccc3)ccc2O[C@H]1CN(C)Cc1ccc(Cl)c(Cl)c1
    8[16.7 µM], 0
C[C@@H]1CN([C@H](C)CO)C(=O)c2cc(-c3ccc(F)cc3)cnc2O[C@@H]1CN(C)C(=O)Nc1ccc(F)cc1
    -2[16.7 µM], -1
O=C(Nc1ccc(F)cc1)N[C@H]1C=C[C@@H](CC(=O)N2CCOCC2)O[C@H]1CO
    -6[16.7 µM], 7
CN(C)C(=O)C[C@@H]1C[C@H]2c3cc(NC(=O)C4CCOCC4)ccc3O[C@H]2[C@H](CO)O1
    2[16.7 µM], -16
CC(C)NC(=O)Nc1ccc2c(c1)C(=O)N([C@@H](C)CO)C[C@H](C)[C@@H](CN(C)CC1CCCCC1)O2
    -11[16.7 µM], -5
CC(C)NC(=O)Nc1ccc2c(c1)C(=O)N([C@@H](C)CO)C[C@@H](C)[C@H](CN(C)Cc1ccc(Cl)c(Cl)c1)OCCCC[C@@H](C)O2
    -38[16.7 µM], 1
C[C@@H]1CN([C@@H](C)CO)C(=O)c2cc(NC(=O)Nc3ccc(C(F)(F)F)cc3)ccc2O[C@H]1CN(C)Cc1ccc(-c2ccccc2)cc1
    -1[16.7 µM], 5
CCCNC(=O)C[C@H]1CC[C@H]2[C@H](COc3ccc(NC(=O)C4CCCC4)cc3C(=O)N2C)O1
    -14[16.7 µM], 11
C[C@@H]1CN([C@@H](C)CO)C(=O)c2cc(NS(=O)(=O)c3ccc(Cl)cc3)ccc2O[C@@H]1CN(C)Cc1ccc(C(F)(F)F)cc1
    2[16.7 µM], -1
